Source: PubChem (National Center for Advancing Translational Sciences (NCATS))
N370S GC mod – qHTS Assay for Inhibitors and Activators of N370S glucocerebrosidase as a Potential Chaperone Treatment of Gaucher Disease. actives 0.092% (n = 330,000). Lysosomal acid glucosylceramidase (Homo sapiens), P04062. Potency, µM (series often up to 59.4 µM), for inactives: at the top dose activity change, negative = inhibition, most hits filed as inhibitors. N370S GC spleen homogenate, 4MU-glucoside fluorescence;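 note: 0% = full enzyme activity and -100% = no enzyme basal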
GCN5L2 inh – qHTS Assay for Inhibitors of GCN5L2; GCN5L2 HAT assay, ThioGlo1 CoA-SH fluorescence; Potency, µM (top dose mostly 58.9 µM), for the others: top-dose activity change, negative = inhibition, hits mostly inhibitors; actives 0.21% (n = 390,000); AID 504327, 2011
Target sequence (Q92830 whole entry, looked up): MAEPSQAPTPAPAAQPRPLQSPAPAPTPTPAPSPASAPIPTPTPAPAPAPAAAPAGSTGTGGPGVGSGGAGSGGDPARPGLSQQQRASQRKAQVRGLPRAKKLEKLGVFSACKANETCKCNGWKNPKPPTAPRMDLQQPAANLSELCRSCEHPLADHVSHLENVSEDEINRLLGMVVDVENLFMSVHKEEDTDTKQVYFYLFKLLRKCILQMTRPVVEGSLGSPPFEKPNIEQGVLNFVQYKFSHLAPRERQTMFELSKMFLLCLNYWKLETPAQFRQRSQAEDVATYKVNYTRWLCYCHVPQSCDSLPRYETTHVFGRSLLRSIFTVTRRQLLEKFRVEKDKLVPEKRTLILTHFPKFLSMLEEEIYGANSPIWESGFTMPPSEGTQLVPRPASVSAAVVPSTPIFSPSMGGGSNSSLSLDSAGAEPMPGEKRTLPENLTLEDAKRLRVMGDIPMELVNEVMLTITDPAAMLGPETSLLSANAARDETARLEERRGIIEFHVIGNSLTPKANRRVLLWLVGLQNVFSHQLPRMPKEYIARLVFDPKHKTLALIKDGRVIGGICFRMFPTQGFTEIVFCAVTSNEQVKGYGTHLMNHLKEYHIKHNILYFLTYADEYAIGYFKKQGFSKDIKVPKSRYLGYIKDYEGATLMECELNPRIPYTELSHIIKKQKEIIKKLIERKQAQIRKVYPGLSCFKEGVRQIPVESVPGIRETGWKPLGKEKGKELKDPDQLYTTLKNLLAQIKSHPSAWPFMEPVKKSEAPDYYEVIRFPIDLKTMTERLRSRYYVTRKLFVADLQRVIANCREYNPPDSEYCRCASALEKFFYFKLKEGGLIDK
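Titration-based screen in which CoA formation is detected via maleimide probe ThioGlo1 (50uM) turning fluorescent on thiol reaction; substrates H3(1-25) 75uM and acetyl-CoA 70uM, GCN5L2 20nM, 20 min incubation at room temperature.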
Starred values were filed as active, the others as inactive; ? = inconclusive; · = not tested or not shown; & = joins results of further samples; [ ] = another dose, or the depositor's remark. Calls come from the whole dose curve; as a rule, active = well fitted curve in the direction sought with a large enough effect; inconclusive = small, poorly fitted or top-dose-only effect, or another doubt; inactive = no such curve, though single readings can be large; an effect the other way counts as inactive or inconclusive. Unless noted, % is set by controls: 0 for no effect and ±100 for the full control effect; potency is the fitted concentration of half-maximal effect. These rows are one share of the data, and most or all hits are left out here.

SMILES	N370S GC mod	GCN5L2 inh
COc1ccc(C(=O)C(C)Oc2cccc(NC(=O)c3cccc([N+](=O)[O-])c3)c2)cc1 (stereo not given)	11%	-7%
Cc1nc2ccccc2c(=O)n1-c1ccc(NS(=O)(=O)c2cc(F)ccc2F)cc1	7%	-2%
Cc1cccc(-n2ncc3c(Nc4c(C)n(C)n(-c5ccccc5)c4=O)ncnc32)c1	4%	-2%
Cc1ccc(S(=O)(=O)CCc2nnc(NC(=O)CCl)s2)cc1C	-6%	-6%
O=C(COc1coc(CN2CCc3ccccc3C2)cc1=O)Nc1ccc(F)cc1	-3%	-12%
O=C(NCC(=O)N1CCOCC1)c1ccc(Cl)cc1	-2%	-7%
CC(C)OC(=O)CC12CN(C)CC(CC(=O)OC(C)C)(CN(C)C1)C2=O	3%[12.8 µM]	-6%
O=S(=O)(NCc1csc(-c2cccnc2)n1)c1ccc(F)cc1	-4%	-1%
COc1cc(OC)c(NC(=O)CCNS(=O)(=O)c2ccc3c(c2)oc(=O)n3C)cc1Cl	-3%	3%&1%
COc1ccc(CC(=O)Nc2nc(-c3ccncc3)cs2)cc1	-17%	-1%
COc1ccc(CCNC(=O)Cn2c(=O)n(-c3cc(F)ccc3F)c(=O)c3sccc32)cc1OC	-5%	-8%
Cc1cc(NC(=O)CCCN2C(=O)/C(=C\c3cccs3)SC2=S)no1	-3%	0%
CCOC(=O)N1CCN(CC(O)COc2ccccc2[N+](=O)[O-])CC1 (stereo not given)	0%	7%
COC(=O)c1ccc(C)c(NC(=O)CCc2cc(OC)c(OC)c(OC)c2)c1	-5%	-3%
O=C(O)c1cnn2c1NC(c1cccs1)CC2C(F)(F)F (stereo not given)	1%	-3%
Cc1cc(C(=O)N2CCCC(C(=O)c3cccc4ccccc34)C2)nc(C)n1 (stereo not given)	10%	-4%
O=C(C1CCN(S(=O)(=O)c2cccc3cccnc23)CC1)N1CCc2ccccc21	-8%	-2%
O=C(NNS(=O)(=O)c1ccccc1Cl)c1nn(-c2ccc(F)cc2)ccc1=O	-8%	0%
O=C(OCc1c(Cl)cccc1Cl)c1ccncc1	5%	21%
COc1ccc(Cl)cc1NC(=O)C1CCN(S(C)(=O)=O)CC1	-1%	4%
CCOc1cc(S(=O)(=O)NCC2CCCO2)ccc1F (stereo not given)	-1%	-7%
Cn1c2ccccc2c2nnc(SCC(=O)NCc3ccoc3)nc21	-3%	-2%
CCCN(CCC)S(=O)(=O)c1ccc(C(=O)Nc2cccc(-c3nc4ccccc4[nH]3)c2)cc1	·	-16%
CCc1nc(SCCO)c2oc3ccccc3c2n1	14%	-1%
O=C(c1cnccn1)N(c1ccccc1)C1(C(=O)NC2CCCC2)CCCCC1	11%	1%
(further entries)
SMILES	N370S GC mod	GCN5L2 inh
CCSc1nnc(NC(=O)C2CCN(C(=O)c3ccc(F)cc3)CC2)s1	·	-3%
COc1cccc(CNC(=O)c2ccc(S(=O)(=O)N3CCOCC3)cc2)c1	-8%	-2%
COc1ccc(NC(=O)C(=O)NCC2CCCN2S(=O)(=O)c2cc(C)ccc2C)cc1 (stereo not given)	-9%	-19%
CCN(CC)CCC(=O)Nc1ccc2c(c1)N(C(=O)CN(CC)CC)c1ccccc1CC2	-2%[12.8 µM]	-6%
Cc1ccc(NC(=S)NNC(=O)c2ccccc2OC(F)F)cc1	4%	-2%
O=C(Nc1ccc(C(=O)OCc2cc(=O)n3nc(C4CC4)sc3n2)cc1)c1ccccc1	·	21%
CCOC(=O)C1CCCN(C(=O)c2ccccc2[N+](=O)[O-])C1 (stereo not given)	15%	-8%
CCOc1ccc(S(=O)(=O)NCCC(=O)N(C)CC(=O)Nc2ccc(N3CCOCC3)cc2)cc1	-7%	3%
CCOc1ccc(NS(=O)(=O)c2ccc3c(c2)N(C(C)=O)CC3)cc1	-8%	0%
Cc1ccc(OCCCC(=O)Nc2ccc(S(=O)(=O)Nc3cc(C)on3)cc2)cc1	-4%	-2%
COc1ccc(S(=O)(=O)n2[nH]c(=O)c(CCO)c2C)cc1	-20%	2%
COc1ccccc1N1CCN(C2CCCN(C(=O)CCc3c(C)noc3C)C2)CC1 (stereo not given)	-4%	-2%
Cc1ccc(S(=O)(=O)N2CCCC(C(=O)NCCC(C)C)C2)cc1 (stereo not given)	5%	1%
O=C(O)c1ccc(S(=O)(=O)N2CCCc3ccccc32)cc1	0%	-11%
CN=C1SC(CC(=O)Nc2ccc(F)cc2F)C(=O)N1/N=C(\C)c1cccc(OCC(=O)O)c1 (stereo not given)	-15%	-12%
Cc1oc2c(c1C(=O)Nc1ccc(OC(F)(F)F)cc1)C1=NCCN1C=N2	·	18%
O=C(CCN1C(=O)C2C3C=CC(C4CC34)C2C1=O)OCC(=O)c1ccccc1 (stereo not given)	-17%	-1%
COc1ccc(C(=O)Nc2ccccc2C(=O)Nc2ccccn2)cc1	18%	-3%
Cc1ccc(-c2nc(N3CCN(C)CC3)c3ccccc3n2)cc1	-3%	2%
CCOc1ccccc1N1CCN(C(=O)CNC(=O)c2ccccc2F)CC1	-18%	0%
O=C(CSc1cccc[n+]1[O-])Nc1c(Br)cc([N+](=O)[O-])cc1Br	-5%	-1%
CCS(=O)(=O)N1N=C(c2cccc(NS(C)(=O)=O)c2)CC1c1ccccc1 (stereo not given)	1%	-3%
CN(C)S(=O)(=O)c1cccc(NC(=O)COC(=O)/C=C/c2ccc3c(c2)OCO3)c1	-13%	-18%
CCn1c(=O)cc(NC2=NCC(C)CN2c2cccc(Cl)c2)n(C)c1=O (stereo not given)	5%	15%
O=C(Nc1ccccc1C(=O)Nc1ccccc1)c1ccco1	0%	-2%
Continued:
SMILES	N370S GC mod	GCN5L2 inh
COc1cccc(-c2csc(N3CCN(C(=O)Nc4ccccc4Cl)CC3)n2)c1	-3%	34%[activator]
O=C(COC(=O)C1CC(O)CN1S(=O)(=O)c1ccccc1[N+](=O)[O-])c1ccc[nH]1 (stereo not given)	·	-6%
CCN(CC)S(=O)(=O)c1ccc(N2CCOCC2)c(NC(=O)CCC2CCCCC2)c1	15%	-8%
CN(C)CCNc1cnn(-c2ccccc2)c(=O)c1Cl	4%	3%
O=c1cc(C(F)(F)F)nc(-c2cccnc2)[nH]1	-4%	-1%
COc1cccc2cc(S(=O)(=O)c3ccccc3)c(=Nc3ccc4c(c3)OCCO4)oc12	19%	2%
Cc1ccc(C(=O)O/N=C2/CC3CCC2(C)[C@@]3(C)CBr)cc1 (stereo not given in full)	27%	-10%
CC(C)C(=O)NC(CC(=O)O)c1ccccc1 (stereo not given)	4%	0%
O=C(NCc1ccccn1)C1CCN(S(=O)(=O)c2cnc[nH]2)CC1	2%	1%
O=C(CN(C(=O)CCC(=O)Nc1nccs1)c1ccc(F)cc1)NCc1ccc2c(c1)OCO2	-14%	-12%
Cc1ccc(NC(=O)CCNS(=O)(=O)c2ccc3c(c2)CCC(=O)N3)cc1C	0%	-15%
COc1cc2c(cc1OC)-c1cc(Nc3ccc(C)cc3)nc(=O)n1CC2	?	-8%
Cc1ccc(S(=O)(=O)N/N=C/c2ccc(OS(=O)(=O)c3ccc(C)c([N+](=O)[O-])c3)cc2)cc1	3%	-6%
CCCCc1cc(=O)oc2cc(C)c3c(C)coc3c12	·	-8%
Cc1occc1C(=O)N/N=C/C1=C(N2CCOCC2)C(=C\c2ccc(Cl)cc2)/CC1	-1%	-2%
CC(C)CNc1nc(Oc2ccc(=O)n(-c3ccccc3)n2)nc(N2CCOCC2)n1	5%	-3%
O=C(Cn1c(=O)c2cccn2c2cccnc21)NCc1ccccc1F	·	-1%
CC(=O)c1cc2c(cc1NS(=O)(=O)c1ccccc1F)OCO2	?	-9%
COc1ccc(OC)c(-c2nc(CN3CCCCC3c3cccnc3)c(C)o2)c1 (stereo not given)	5%	0%
Cc1cccc(NC(=S)NNC(=O)c2ccc(O)cc2O)c1C	-13%	-15%
Cc1cc(Cl)cc(C)c1OCCNCc1ccccc1	-16%	-4%
CC(C)(C)NC(=O)Cn1c(SCC(=O)NCc2cccs2)nc2ccccc21	-23%	0%
CCOC(=O)c1cc(C#N)c(C)nc1N(CC)CC	2%	-5%
CCOc1ccc2nc(NC(=O)CSc3nnnn3C3CCCCC3)sc2c1	12%	-12%
CN(C)C(=O)c1cc(C(=O)c2ccc(F)cc2C(F)(F)F)c[nH]1	-15%	-10%
Continued:
SMILES	N370S GC mod	GCN5L2 inh
Cc1ccccc1-n1nc(C)c2c(C(=O)NN)cc(-c3ccncc3)nc21	-23%	-2%
COc1cccc(-c2csc(N3CCN(C(=O)Nc4ccc(Cl)cc4)CC3)n2)c1	-2%	?
COc1ccc(C)cc1N(C)C(=O)CCc1nc(-c2ccccc2F)no1	·	-4%
COc1ccc(OCCCC(=O)Nc2cccc(SC)c2)cc1	3%	20%
Cc1ccc(NCc2nnc(SCC(N)=O)o2)c(C)c1	-2%	1%
N#CCCn1cc(/C=N/O)c(-c2ccc(Cl)cc2)n1	-8%	1%
CC(C)(C)NC(=O)N1CCCN(c2ccc(C(F)(F)F)cn2)CC1	7%	-2%
Cn1cnc2c1c(=O)n(CC(O)CO)c(=O)n2C (stereo not given)	-27%	3%
CC(=O)Nc1ccc(/C=N/N2C(=O)NC(C)(c3ccc(OC(F)F)cc3)C2=O)cc1 (stereo not given)	-12%	-6%
CCOc1ccc(CCNC(=O)c2cnc3c(-c4ccc(F)cc4)c(C)nn3c2C)cc1	·	1%
CN(CCO)C(=O)CCC(=O)Nc1ccc(S(N)(=O)=O)cc1	-7%	-1%
CC(C)CC(=O)NC(=S)Nc1ccc(S(=O)(=O)Nc2nccs2)cc1	2%	1%
O=C(CC1C(=O)NCCN1C/C=C/c1ccccc1)NCCc1ccncc1 (stereo not given)	3%	-2%
O=C(Nc1ccc(NC(=O)c2ccc(Cl)cc2Cl)cc1)c1cccs1	-6%	-2%
O=C(CSc1ccc(-c2cccs2)nn1)N1CCCCC1	3%	28%
CC(=O)NCCCC(=O)NN1C(=S)N(Cc2ccccc2)C(=O)C1CC(=O)Nc1cccc(C)c1 (stereo not given)	3%	-2%
Cc1c(Cl)cccc1-n1ccnc1SCC(=O)O	1%	3%
COc1ccc(-c2nnc(SCC#N)o2)cc1	18%	-3%
CCOC(=O)C1=C(COC(=O)COc2ccccc2C(C)C)NC(=O)NC1C (stereo not given)	-5%	-16%
COCC(C)n1c(C)cc(C(=O)COc2ccc(N(C)S(=O)(=O)c3ccc(NC(C)=O)cc3)cc2)c1C (stereo not given)	-1%	-6%
Cc1ccnc(N2CCCC(C(=O)Nc3cccc(C)c3C)C2)n1 (stereo not given)	-4%	1%
Cc1ccc2[nH]c(-c3ccccc3)c(CN3CCOCC3)c(=O)c2c1	-4%	-9%[0.501 µM]
Cc1ccc(-c2noc(CSc3nnc(-c4cccs4)n3C)n2)cc1	19%	-19%
CCOC(=O)c1cc2c(s1)-c1ccccc1CC2	12%	?
O=C(CN1C(=O)NC2(CCCCCC2)C1=O)NCc1cccs1	1%	0%
(next part)
SMILES	N370S GC mod	GCN5L2 inh
Cc1cccc2cc(C#N)c(SCC(=O)NCc3cccs3)nc12	-7%	-1%
N#Cc1nc(COc2cccc(Cl)c2)oc1N1CCN(c2ccccc2)CC1	-6%	-22%
COC(=O)c1[nH]c2ccc(F)cc2c1NS(=O)(=O)c1ccc(OC)cc1OC	6%	-5%
CCOC(=O)Cn1ccc(NC(=O)COc2ccc(F)cc2)n1	-19%	-5%
COc1ccc(NC(=O)C2CCCC2)cn1	-1%	-9%
CCNc1nc(NCC)nc(NC(N)=S)n1	13%	-2%
O=C(N/N=C/c1ccccc1)C(O)c1ccccc1 (stereo not given)	0%	0%
CCOc1ccc(-c2nc(CN3CCCCC3CCn3cccn3)c(C)o2)cc1 (stereo not given)	-5%	4%
CCOC(=O)c1cccc(NC(=O)CCn2cccc2)c1	19%	2%
O=C(CNC(=O)c1ccco1)NCC(=O)OCC(=O)c1ccc(Cl)c([N+](=O)[O-])c1	-9%	-2%
[O-][N+]1=C(c2cccs2)CN(O)C1	-5%	-8%
CC(=O)c1cc(C#N)c(N2CCOCC2)nc1C	0%	-7%
CCN1CCN(C(=O)C2=CC(c3ccc(OC)cc3)=NS(=O)(=O)N2C)CC1	-3%	-38%
C/C=C/Cn1cccc(C(=O)Nc2ccc(OC)cc2)c1=O	5%	-9%
